gsp antag = antagonizes gsp, the McCune-Albright syndrome mutation; gsp-mutant cells, cAMP HTRF, 30 min; control for the full effect not named in the record; Potency, µM (doses to about 76.9 µM), for inactives: at the highest dose activity change, negative = inhibition, hits mostly inhibitors; actives 0.4% (n = 340,000); AID 624288; active = falling curve of any shape with a large fitted effect; inconclusive = falling curve, mostly with a smaller effect; inactive = flat or rising curve; cell line not stated here;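 note: intracellular cAMP measured with PDE inhibitor Ro 20-1724 present during compound exposure; potency is the fitted concentration of half-maximal effect; % is set by controls: 0 for no effect and ±100 for the full control effect; nearly all actives have a fitted effect of over 65% in size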
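Cells in G418 medium, seeded 16-24 h, 37C; buffer exchange to DPBS + 1 mM CaCl2, 0.5 mM MgCl2, 0.05% BSA; cpds in DMSO + […] (300 uM stock), 30 min 37C; HTRF cAMP detection.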
TRPV1 PAM = enhances activation of the human vanilloid receptor TRPV1. Q8NER1. TRPV1-expressing cells, Fluo-8 calcium influx, capsaicin EC20 potentiation; host cell line not named in the record; control for the full effect not named in the record. potentiation, % at 8.33 µM. actives 0.02% (n = 320,000); active means potentiation above 80%; inconclusive means 30% to 80%; inactive means below 30%; note: 0% is about no effect
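Fluo-8 calcium influx in TRPV1-expressing cells, kinetic read (ex 480/em 520 nm). Compound added and read 3 min for agonist activity, followed by capsaicin at EC20 final and 2 min further read for enhancement.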
TRPML1 inh = blocks the human TRPML1 channel; activity change, negative = inhibition, % (no concentration beside the values); TRPML1-inducible cells, Ca2+ dye fluorescence, FDSS; active compounds read low; inhibition of EC80 agonist-evoked calcium signal; actives 0.02% (n = 390,000); Q9GZU1; in the data active means activity change below about -50%; inconclusive means about -30% to -50%; inactive means above about -30%;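 note: stimulus is agonist 54-4 at its EC80 concentration; % is set by controls: 0 for no effect and ±100 for the full control effect; compound concentration not given in the record; the text of the record puts the active cut at -80%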
Target sequence (Q9GZU1 whole entry, looked up): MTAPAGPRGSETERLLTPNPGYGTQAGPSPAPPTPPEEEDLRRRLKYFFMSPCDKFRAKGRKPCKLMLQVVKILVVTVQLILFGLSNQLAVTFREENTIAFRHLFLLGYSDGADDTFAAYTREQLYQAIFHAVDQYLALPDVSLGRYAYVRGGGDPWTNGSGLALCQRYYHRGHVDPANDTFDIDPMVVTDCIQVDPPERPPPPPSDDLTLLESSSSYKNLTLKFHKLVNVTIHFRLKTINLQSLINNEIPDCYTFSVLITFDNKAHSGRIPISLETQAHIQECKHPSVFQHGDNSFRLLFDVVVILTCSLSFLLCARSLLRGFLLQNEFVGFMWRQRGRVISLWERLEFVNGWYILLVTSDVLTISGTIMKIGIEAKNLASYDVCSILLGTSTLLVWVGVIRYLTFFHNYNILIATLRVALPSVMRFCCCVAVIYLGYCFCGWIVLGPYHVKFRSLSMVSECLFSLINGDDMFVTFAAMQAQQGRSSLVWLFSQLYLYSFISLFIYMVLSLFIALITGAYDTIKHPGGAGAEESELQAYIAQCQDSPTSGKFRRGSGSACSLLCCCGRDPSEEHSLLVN
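Calcium fluorescence in TRPML1-DL cells induced overnight with Tet: a 110 s read after compound pin addition, then a 110 s antagonist read after challenge with 54-4 at 4 uM final (EC80).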
gsp ag = agonists of gsp mutant (McCune-Albright syndrome). gsp mutant cells, cAMP HTRF, 30 min; control for the full effect not named in the record. Potency, µM (doses to about 76.9 µM), inactives show at the top dose activation (cAMP increase), hits mostly activators. actives 0.13% (n = 340,000); active = well fitted activation curve with a large enough effect; inconclusive = small, poorly fitted or top-dose-only effect, or another doubt; inactive = no such curve, though single readings can be large or run the other way; cell line not stated here;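 note: phosphodiesterase inhibitor Ro 20-1724 added with compounds to block cAMP breakdown; potency is the fitted concentration of half-maximal effect; nearly all actives have a fitted effect of over 60% in size; about a fifth of the inactives were tested at one dose only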
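Cells stably selected in G418 were plated at 2000/well, grown 16-24 hr, then given compounds in DMSO with the PDE inhibitor […] (300 uM solution added) for 30 min at 37C; cAMP was read by HTRF.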
ClpP mod = qHTS Assay for Activators of ClpP | ATP-dependent Clp protease proteolytic subunit (Bacillus subtilis (strain 168)), P80244 | purified B. subtilis ClpP, FRET peptide cleavage, 20 min | Potency, µM (highest dose often 57.5 µM), for the others: at the highest dose activity change, negative = active | actives 1.9% (n = 340,000) | AID 651965, 2013; active = well fitted falling curve with a large enough effect; inconclusive = small, poorly fitted or top-dose-only effect; inactive = no such curve, though single readings can be large or run the other way; note: potency is the fitted concentration of half-maximal effect; the source files actives as falling curves though it sought activators and does not explain the sign; nearly all actives have a fitted effect of over 65% in size; many hits overshoot -100%
Target sequence (P80244 whole entry, looked up): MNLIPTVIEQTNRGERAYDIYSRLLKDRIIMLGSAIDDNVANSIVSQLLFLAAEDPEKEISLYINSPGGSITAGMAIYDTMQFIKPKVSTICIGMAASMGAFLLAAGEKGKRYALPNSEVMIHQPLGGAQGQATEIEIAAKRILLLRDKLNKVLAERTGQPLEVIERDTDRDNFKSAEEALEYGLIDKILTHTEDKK
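FRET quenching reversal measured ClpP activation: 10 microg/mL B. subtilis ClpP at pH 8 with the FRET-FV decapeptide, read at 430 nm after 320 nm excitation. The 20-min minus 0-min signal was scaled between DMSO/no-enzyme wells and ADEP (5.8 microM final).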
Menin MLL FP FL = displaces fluorescein MLL peptide from human menin; Fluorescence polarization, fluorescein-MLL peptide displacement from menin; FP activity change, % at 61.4 µM; 290,000 tested, under 10 active; AID 1766; inconclusive = falling polarisation curve, or a change in total fluorescence; inactive = total fluorescence flat and polarisation flat or rising; no compound was filed as active; the % refers to the polarisation; negative = inhibition;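 note: % of control where 0% means no effect; inhibitors lower the polarisation; unlabelled MLL peptide was the positive control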
Sfp PPTase inh = blocks B. subtilis Sfp PPTase activity; Q9F4F7; Biochemical Sfp PPTase activity, qHTS; Potency, µM, inactives show max response, negative = inhibition, usual class: inhibitors; actives 3.5% (n = 310,000); AID 1490; active = well fitted inhibition curve with a large enough effect; inconclusive = small, poorly fitted or top-dose-only effect, or another doubt; inactive = no such curve, though single readings can be large or run the other way;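 note: the enzyme is Sfp with the accession as filed and its product quenches rhodamine fluorescence; potency is the fitted concentration of half-maximal effect; 0% = enzyme reaction without inhibitor and -100% = no enzyme wells; top concentration of the series not given in the record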
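Reaction rates are the 30-min fluorescence difference (ex 525, em 598 nm) in wells containing 15 nM Sfp, 5 uM rhodamine-CoA and 12.5 uM BHQ-2-YbbR at pH 7.6 with 10 mM MgCl2.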
* hit, by the source's call; u = inconclusive; x = no result given; & = joins results of further samples; [ ] = dose if it differs, or a comment.

molecule | TRPV1 PAM | TRPML1 inh | Menin MLL FP FL | gsp ag | gsp antag | ClpP mod | Sfp PPTase inh
Cc1ccc(C(C#N)c2ccc(Cl)nn2)cc1 (centres undefined) | -16 | -4 | -1.1 | 1%[15.4 µM] | x | x | 17%
CCOc1ccccc1NC(=O)C(NCC1(N2CCCCC2)CCCCC1)c1ccccc1 (centres undefined) | -28 | -8 | 1.8 | 0% | -11% | -1.0% | u
O=C(NNC(=O)c1ccccc1F)c1ccc(-c2ccc(Cl)cc2)o1 | 3 | -9 | x | -4%[15.4 µM] | -6% | x | x
Cc1ccccc1C(=O)NCCNC(=O)c1ccco1 | 2 | -19 | 0.6 | -11%[15.4 µM] | -14% | x | 18%
NC(=O)Cn1c2[n+](c3ccccc31)CC(O)CS2 (centres undefined) | 17 | -1 | 0.4 | -83%[inhibitor] | -4% | -2.0% | 2%
CCCCCCN1C=CC(=C/C=C(\C#N)C(=O)OCC)C=C1 | -21 | -12 | u | -2% | -10% | 0.7% | 4%
CSc1nc(N2CCOCC2)c2c(c1C#N)CC(C(C)C)OC2 (centres undefined) | -7 | -8 | -9.2 | u | -19% | -1.8% | 9%
Cc1cc(C(=O)NNC(=O)c2ccc(F)cc2)c(C)s1 | x | -8 | x | 4%[15.4 µM] | 10% | -2.8% | x
O=c1c2ccccc2nnn1-c1ccccc1 | x | 12 | x | -6% | 0% | 3.6% | x
COc1ccc2nc(NC(=O)c3ccc(-c4cccc([N+](=O)[O-])c4)o3)sc2c1 | -10 | x | -0.9 | x | x | x | 13%
c1ccc(-c2ccccc2OCCN2CCCC2)cc1 | -27 | 25 | -2.2 | -22% | 12% | x | -8%
Cc1ccccc1Nc1nc(N)nc(COC(=O)c2ccc(O)cc2)n1 | -3 | -16 | 3.0 | 18% | -13% | -3.1% | 8%
Cc1cccc(NC(=S)N(Cc2ccc(Cl)cc2)Cc2ccc(C(=O)O)cc2)c1 | -1 | -6 | 0.3 | -1%[15.4 µM] | -23% | -17% | 3%
CC(=O)Nc1ccc(S(=O)(=O)NCCC(=O)OCC(=O)c2ccc(Br)cc2)cc1 | 4 | -9 | x | 5% | -8% | 0.3% | x
CC(=O)Oc1cc2c(cc1Cl)C(c1cccs1)CC1(CC(C)(C)NC(=S)N1)O2 (centres undefined) | -11 | -19 | -6.8 | -15%[15.4 µM] | -6% | x | 0%
CCCC(C(=O)NC1CCCCC1)N(Cc1ccco1)C(=O)CNS(=O)(=O)c1ccccc1 (centres undefined) | -14 | 21 | -0.3 | 16% | 1% | 0.2% | 16%
Cc1cccc(NC(=O)C(=O)NCC2CCCN2S(=O)(=O)c2cccs2)c1 (centres undefined) | x | 13 | x | -4% | x | 2.0% | x
COCCn1c(SCc2ccc(Cl)cc2)nc2c1c(=O)[nH]c(=O)n2C | x | 23 | x | 1%[15.4 µM] | -14% | -0.8% | x
Cc1ccc(CN2CCN(/N=C/c3ccc(C(F)(F)F)cc3)CC2)cc1 | -10 | 3 | -0.8 | 15% | 3% | -0.5% | 0%
Cc1cccc(-c2nc3ccccc3c(=O)n2NC(=O)c2cccs2)c1 | 6 | 23 | 0.9 | 9%[15.4 µM] | 6% | -3.2% | 6%
COc1ccc(N=C2NC(=O)S/C2=C\c2ccc(N(C)C)cc2)cc1 | 18 | 11 | u | 2%[15.4 µM] | -14% | 1.0% | -7%
O=C(c1ccc(CS(=O)Cc2cccc(Cl)c2)o1)N1CCN(C2CCCCC2)CC1 (centres undefined) | 18 | 22 | -0.8 | 14% | -14% | 0.7% | 10%
COc1ccc(-c2[nH]ncc2CN2CCN(Cc3cccs3)CC2)cc1F | 4 | -2 | 0.9 | -20% | 2% | 0.2% | 2%
c1ccc(COCC2CCNCC2)cc1 | 1 | 4 | -7.6 | -25% | 19% | x | -2%
CCCC(NC(=O)Cc1c(C)c2c(cc(C)c3c(C)coc32)oc1=O)C(=O)O (centres undefined) | 25 | 0 | -3.9 | u | 3% | 3.4% | 6%
CCOc1ccc(-c2nn[nH]n2)cc1OCC | 23 | -1 | 1.0 | -37% | -9% | 0.2% | -6%
CCOC(=O)N1CCc2c(sc(NC(=O)C3COc4ccccc4O3)c2C(N)=O)C1 (centres undefined) | 3 | -10 | x | 6% | -26% | 4.5% | -9%
Cc1ccc2cc(CN(C(=O)c3ccco3)c3ccccc3C)c(=O)[nH]c2c1 | 2 | -6 | 0.1 | u | -13% | u | 50µM*
CC(C)(C)OC(=O)NCc1n[nH]c(=S)n1C1CC1 | x | 0 | -0.6 | 6%[15.4 µM] | 1% | -4.2% | -24%
COc1cc2c(cc1NC(=O)COC(=O)C1CC(=O)N(Cc3ccco3)C1)oc1ccccc12 (centres undefined) | 23 | 18 | 1.3 | -32%[inhibitor] | -17% | 25µM* | 3%
O=C(COC(=O)/C=C/c1ccc(OC(F)F)cc1)NC(=O)NC1CCCCC1 | x | 2 | x | -11% | -16% | 5.1% | x
CCOC(=O)C(=O)N/N=C/c1ccco1 | -14 | -3 | 8.9 | 10%[15.4 µM] | 10% | x | -11%
CC(=O)C1C(=O)c2c(cccc2[N+](=O)[O-])C1=Nc1cccc(Cl)c1 (centres undefined) | -4 | 33 | 0.1 | 17%[15.4 µM] | -35% | -0.7% | 56µM*
CCCCCCc1nc(C(N)=O)c2[nH]c(=O)n(-c3ccc(OC)cc3OC)c2n1 | -19 | -1 | 0.4 | 6% | -11% | -6.2% | -5%
CC(C)(C)n1nc2c(c1NC(=O)c1ccccc1)CS(=O)(=O)C2 | 5 | -11 | -2.1 | 24%[15.4 µM] | 7% | x | 15%
COc1ccc(-n2c(SCCNCCO)nc3sc4c(c3c2=O)CCCC4)cc1 | 22 | -14 | 1.2 | -52%[inhibitor] | -19% | x | 17%
CC(=O)Nc1ccc2c(c1)nc(CCN1CCN(C)CC1)n2C | 22 | -9 | 2.3 | 11% | 5% | u | -11%
COc1ccc(/C=C/C(=O)N(C)C2CCS(=O)(=O)C2)cc1OC (centres undefined) | 8 | 12 | 7.7 | 5% | 7% | u | 6%
CO[C@@H]1O[C@@H]2COC(c3ccccc3)O[C@@H]2[C@@H](OC)[C@@H]1O (some centres undefined) | -3 | 7 | -1.3 | -21% | -2% | -1.0% | -9%
Cc1cc(Nc2cccc(O)c2)c2ccccc2n1 | -10 | x | 4.3 | x | x | x | 9%
COC(=O)c1ccc(NCN2C(=O)C3C4CCC(C4)C3C2=O)cc1 (centres undefined) | 4 | 10 | 1.3 | -40%[inhibitor] | 11% | -8.5% | 13%
COc1ccc(S(=O)(=O)N(CCc2ccccc2)CC(=O)O)cc1Cl | 1 | 2 | -1.6 | 6% | 2% | 0.7% | 19%
COc1ccccc1C(=O)COC(=O)c1nc2nc(C)cc(C)n2n1 | -1 | 7 | x | u | 9% | -5.2% | x
Cc1cccc(NC(=O)C(Cc2ccccc2)n2cccc2)c1 (centres undefined) | -11 | 13 | 5.5 | -13% | -10% | 0.9% | 1%
CCOc1ccccc1N(CC(=O)Nc1ccccc1F)S(=O)(=O)c1ccccc1 | 5 | 61 | -0.6 | 5% | -22% | -2.0% | 7%
O=C1CCC(C(=O)Nc2cccc(C(F)(F)F)c2)N1 (centres undefined) | x | -6 | -1.8 | 7% | 7% | -0.6% | 28%
CC(NCC(O)COc1ccc2ccccc2c1)c1ccccc1 (centres undefined) | 4 | 20 | -0.2 | u | 17% | x | -5%
O=C(c1ccc(F)cc1)N1CCN(c2cnn(-c3ccccc3)c(=O)c2Cl)CC1 | -2 | 4 | -2.6 | -22%[15.4 µM] | -16% | x | 19%
OCCC1CN(Cc2cnc(N3CCCC3)s2)CCN1C1CCCC1 (centres undefined) | 1 | -16 | 2.5 | -10% | 3% | -1.5% | -8%
Cc1ccc(S(=O)(=O)CCC(=O)OCC(=O)NCc2ccccc2)cc1 | 5 | -9 | x | -28% | -6% | 1.1% | x

Carrying on:
molecule | TRPV1 PAM | TRPML1 inh | Menin MLL FP FL | gsp ag | gsp antag | ClpP mod | Sfp PPTase inh
COC(=O)[C@@H]1C[C@@]2(O)[C@H](O)[C@H](O)[C@H](O)C[C@H]2N1Cc1cc(OC)cc(OC)c1 | -14 | 5 | 0.0&-0.1 | x | 11% | -1.0% | 11%&-2%
COc1cccc(CN2CC(C(=O)N(C)Cc3ccnc4ccccc34)CCC2=O)c1 (centres undefined) | -5 | -27 | -3.8 | u | 16% | 1.2% | 7%
c1ccc(CNc2nc3ccccc3n2CCN2CCOCC2)nc1 | -1 | 0 | 2.1 | -32%[inhibitor] | 5% | 0.9% | 89µM*
FC(F)(F)c1cc(-c2cccs2)nc2ncnn12 | 2 | 17 | -2.4 | 1%[15.4 µM] | 9% | x | 15%
Cc1ccc(C)c(N2CC(C(=O)Nc3cc(C)on3)CC2=O)c1 (centres undefined) | 13 | -10 | 2.7 | 8%[15.4 µM] | 8% | x | 8%
O=C(CNC(=O)C1CCCCC1)Nc1ccc(F)c(Cl)c1 | -22 | -6 | -2.2 | 5%[15.4 µM] | 6% | -4.6% | 9%
COc1ccc(C2NC(=S)NC3=C2N2CCC3CC2)cc1 (centres undefined) | 22 | -7 | 10 | -4%[15.4 µM] | 13% | -2.1% | 0%
CCCCn1c(N)c(N(CCOC)C(=O)CCS(=O)(=O)c2ccc(Cl)cc2)c(=O)[nH]c1=O | -15 | 9 | x | -6% | 8% | -15% | x
Cc1ccccc1NC(=O)C1CC(=O)N(c2ccc3c4c(cccc24)CC3)C1 (centres undefined) | x | 4 | -0.4 | -22% | 3% | -2.2% | 6%
CCOC(=O)N1CCC(c2nc3ccccc3[nH]2)CC1 | 2 | 11 | 1.4 | 3% | 8% | -2.6% | 10%
NC(=O)c1nn(-c2ccccc2)nc1N | u | -4 | -12 | -1% | -3% | -0.9% | 12%
